Screens (PubChem)
Cruzain Triton – blocks cruzain activity in presence of Triton detergent. AID 1478. Potency, µM, for the others: max response, negative = inhibition, hits mostly inhibitors. hit rate 0.43% among 200,000. purified cruzain, Z-FR-AMC fluorescence, 0.01% Triton; active means well fitted curve in the direction sought with a large enough effect; inconclusive means small, poorly fitted or top-dose-only effect, or another doubt; inactive means no such curve, though single readings can be large; an effect the other way counts as inactive or inconclusive;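 further: plate controls were neutral wells for no effect and buffer without enzyme for full effect; nearly all actives have a fitted effect of over 40% in size; top concentration of the series not given in the record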
Target sequence (P25779 123-467 limits assumed): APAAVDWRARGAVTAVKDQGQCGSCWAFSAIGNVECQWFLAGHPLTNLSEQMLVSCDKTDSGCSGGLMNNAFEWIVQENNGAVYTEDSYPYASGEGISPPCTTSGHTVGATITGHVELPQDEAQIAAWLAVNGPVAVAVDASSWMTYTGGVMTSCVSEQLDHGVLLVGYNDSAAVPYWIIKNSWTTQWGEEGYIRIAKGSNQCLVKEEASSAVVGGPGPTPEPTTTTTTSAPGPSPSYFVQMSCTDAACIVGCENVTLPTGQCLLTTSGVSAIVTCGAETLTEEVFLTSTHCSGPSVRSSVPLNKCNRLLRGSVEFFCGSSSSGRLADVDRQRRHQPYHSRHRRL
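15 min RT preincubation of 1.5 nM cruzain with compound, then 2 uM Z-FR-AMC added; kinetic AMC fluorescence, 60 s delta. Triton X-100 0.01%, pH 5.5.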
Cruzain noTriton – inhibitors of Trypanosoma cruzi cruzain without detergent. purified cruzain, Z-FR-AMC fluorescence, no detergent. P25779. Potency, µM, without a hit: max response, negative = inhibition, actives largely listed as inhibitors. hit rate 2.3% among 200,000; active means well fitted curve in the direction sought with a large enough effect; inconclusive means small, poorly fitted or top-dose-only effect, or another doubt; inactive means no such curve, though single readings can be large; an effect the other way counts as inactive or inconclusive;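 further: plate controls were enzyme without inhibitor for no effect and buffer without enzyme for full effect; nearly all actives have a fitted effect of over 40% in size; top concentration of the series not given in the record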
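Detergent-free condition (0.00005% Triton X-100) in acetate buffer pH 5.5 with DTT. 1.5 nM enzyme and compound were pre-mixed 15 min, then 2 uM Z-FR-AMC substrate added; reaction progress from fluorescence change between first and third reads (60 s).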
RE007 growth inh – less growth of the S. pombe RE007 Vpr strain; S. pombe RE007 Vpr strain, BacTiter-Glo ATP luminescence, 24 h; control for the full effect not named in the record; Potency, µM (series often up to 92.2 µM), for the others: at the highest dose activity change, negative = less growth; hit rate 0.21% among 360,000; active = well fitted falling curve with a large enough effect; inconclusive = small, poorly fitted or top-dose-only effect; inactive = no such curve, though single readings can be large or run the other way;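 further: on the % scale 0 is the no-effect control and ±100 the full control effect; nearly all actives have a fitted effect of over 50% in size; the assay follows cell death caused by Vpr and the record does not say whether a fall means rescue or toxicity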
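Fission yeast RE007 carrying one integrated HIV-1 vpr copy, seeded at OD 0.01 in PMG+AL medium with 23 nL pinned compound. Grown 24 h at 30 degrees; viability read by BacTiter-Glo luminescence after 5 min.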
SARS PLP yeast – SARS-CoV PLP inhibition in yeast; hit rate 0.19% among 330,000; S. cerevisiae expressing SARS-CoV PLpro, growth rescue; control for the full effect not named in the record; Potency, µM (highest dose often 32.9 µM), for the others: top-dose activity, positive = growth rescue; further: 0% is about no effect; nearly all actives have a fitted effect of over 55% in size; growth read by luminescence after 48 h
NS1 function inh – influenza NS1 inhibition; Potency, µM (highest dose often 46.1 µM), inactives show at the top dose activity, positive = more growth; AID 2326; S. cerevisiae slowed by influenza A NS1, growth recovery by OD600; hit rate 0.4% among 270,000; further: actives are rising curves; nearly all actives have a fitted effect of over 50% in size
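Read-out: OD600 growth recovery of NS1-expressing budding yeast. Cells grown overnight at 30C in -URA glucose medium, washed, resuspended and diluted 1:100 in 2% galactose assay medium, pH 6.0. Same strain lacking NS1 served as positive control.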
Marburg entry inh – Marburg virus entry inhibition. Marburg virus pseudotyped entry inhibition, cell reporter; control for the full effect not named in the record; about a third of the inactives were read at about 46 µM. Potency, µM (highest dose often 37.8 µM), without a hit: top-dose activity change, negative = inhibition, actives largely listed as inhibitors. hit rate 1.8% among 300,000; active = well fitted inhibition curve with a large enough effect; inconclusive = small, poorly fitted or top-dose-only effect, or effect the other way; inactive = flat fitted curve, though single readings scatter; tested in HEK293 cells; about a fifth of its hits are not listed in these tables; further: on the % scale 0 is the no-effect control and ±100 the full control effect; luciferase read-out
Lassa entry inh – inhibitors of Lassa virus binding or cell entry | hit rate 1.2% among 300,000 | Potency, µM (highest dose often 37.9 µM), inactives show top-dose activity change, negative = inhibition, usual class: inhibitors | Lassa virus pseudotype entry inhibition, cell reporter; control for the full effect not named in the record; active means well fitted inhibition curve with a large enough effect; inconclusive means small, poorly fitted or top-dose-only effect, or effect the other way; inactive means flat fitted curve, though single readings scatter; tested in HEK293 cells; further: on the % scale 0 is the no-effect control and ±100 the full control effect; nearly all actives have a fitted effect of over 50% in size; luciferase read-out
StopGo reporter – FMDV 2A StopGo reporter, luciferase signal. human cells with a luciferase reporter of 2A StopGo recoding; control for the full effect not named in the record. Potency, µM (doses to about 57.9 µM), inactives show at the highest dose signal change, negative = less light. hit rate 1.2% among 410,000; active = well fitted falling curve with a large enough effect; inconclusive = small, poorly fitted or top-dose-only effect; inactive = no such curve, though single readings can be large or run the other way; tested in HEK293T cells; further: on the % scale 0 is the no-effect control and ±100 the full control effect; nearly all actives have a fitted effect of over 45% in size; luciferase light after 4 h
Starred values were filed as active, the others as inactive; ? = inconclusive; nt = not tested or not shown; & = joins results of further samples; [ ] = dose if it differs, or a comment. Unless noted, the call rests on the fitted dose curve; in most records, active means well fitted rising curve with a large enough effect; inconclusive means small, poorly fitted or top-dose-only effect; inactive means no such curve, though single readings can be large or run the other way. Potency means the concentration at half of the fitted maximal effect.

SMILES | Marburg entry inh | NS1 function inh | SARS PLP yeast | StopGo reporter | RE007 growth inh | Cruzain Triton | Lassa entry inh | Cruzain noTriton
CC(C)(C)c1ccc(OCC(O)CN2CCN(c3ccccn3)CC2)cc1 (stereo not given) | nt | -9% | 0% | -9% | -11% | nt | nt | nt
Cc1cccc(-c2c3c(=O)n(C)c(=O)n(C)c3c3c(C)nc4ccccc4n23)c1 | -4%[46.1 µM] | nt | nt | ? | nt | 3.6% | 18%[46.1 µM] | 4%
CCOC(=O)c1ccc(Nc2ncnc3c2cnn3C)cc1 | -6% | -36% | -2% | nt | -2% | 3.5% | 24% | 6%
COc1ccc(CCCc2nnc(SCC(=O)Nc3nc(C)cs3)n2C)cc1C | 2% | 5% | 3% | -19% | 17% | 2.0% | -25% | -12%
NC(=O)/C(=C/c1cccnc1)NC(=O)c1ccccc1 | 17%[14.2 µM] | 7% | 3% | -11% | 3% | nt | -1% | nt
CCCC(C(=O)OCCN(CC)CC)(c1ccccc1)c1ccccc1 | 10µM* | -16% | nt | -25%&-20% | -10%[18.4 µM] | -2.0%&-1.3%&1.2% | ? | 7%&3%&1%
CCC(CC)N1CCN(CC2CC=CCC2)CC1 (stereo not given) | -28%[46.1 µM] | nt | -4% | -7% | -2% | nt | -11% | nt
Cc1cccn2c(=O)cc(COc3ccc(NC(=O)COc4ccc(F)cc4)cc3)nc12 | nt | nt | nt | -20% | nt | 2.4% | 0%[46.1 µM] | 14%
CC1(c2ccc(Cl)cc2)NC(=S)N2C1NC(=S)N2c1ccccc1 (stereo not given) | -3%[46.1 µM] | 0% | 0% | 51%[activator] | ? | nt | -8% | nt
CC1(C)Cc2c(C#N)c(N3CCOCC3)nc(-c3ccccc3)c2CO1 | -23% | -9% | -11% | ? | -14% | -6.9% | -8% | 30%
CCOC(=O)C1CCN(C(=O)c2ccc3c(=O)n4nc(Nc5ccccc5)sc4nc3c2)CC1 | nt | nt | nt | -1%&-19% | 2% | 1.4% | 25%[46.1 µM] | -3%
COc1cccc(NC(=O)Cn2c(=O)n(CCc3cccc(C)c3)c(=O)c3ccccc32)c1 | 3%[46.1 µM] | nt | nt | -5% | nt | -4.0% | 13%[46.1 µM] | -6%
O=C(NNC(=O)c1ccccc1)C(=O)N1CCCCC1 | 2% | 10% | 1% | 18% | -7% | 4.4% | 12% | -1%
O=C(CN1CCN(c2ccccn2)CC1)N(c1ccccc1)c1ccc2ccccc2c1 | ? | -85% | -7% | 15% | -11% | -7.1% | -19% | 1%
Cn1c(SCC(=O)NC2CCCC2)nnc1-c1ccccn1 | nt | 6% | 7% | -14% | -6% | nt | nt | nt
Cc1ccc(CNc2oc(-c3ccc(COc4ccc(C)cc4)o3)nc2C#N)cc1 | -7%[46.1 µM] | nt | nt | -17% | nt | -2.4% | -22%[46.1 µM] | -18%
COc1ccc(NC(=O)Cn2nnc(C(=O)NCc3ccccc3)c2N)c(OC)c1 | 8.2µM* | nt | 0% | ? | -5% | nt | ? | nt
C[C@H](NC(=O)[C@@H]1Cc2ccccc2CN1)C(=O)Nc1ccc2c(c1)OCO2 | nt | -9% | 1% | 21% | 3% | nt | nt | nt
O=C(CSc1ccc2nnc(-c3ccc(F)cc3)n2n1)N1CCCc2ccccc21 | ? | -1% | -10% | -3% | -1% | -4.3% | ? | 21%
O=C(CCCN1C(=O)/C(=C\c2cccs2)SC1=S)Nc1ccc(O)cc1C(=O)O | nt | -12% | 0% | -23% | 4% | nt | nt | nt

6 compounds drawn at random from the list so far, as already listed:
SMILES | Marburg entry inh | NS1 function inh | SARS PLP yeast | StopGo reporter | RE007 growth inh | Cruzain Triton | Lassa entry inh | Cruzain noTriton
Cc1cccn2c(=O)cc(COc3ccc(NC(=O)COc4ccc(F)cc4)cc3)nc12 | nt | nt | nt | -20% | nt | 2.4% | 0%[46.1 µM] | 14%
O=C(CN1CCN(c2ccccn2)CC1)N(c1ccccc1)c1ccc2ccccc2c1 | ? | -85% | -7% | 15% | -11% | -7.1% | -19% | 1%
CCC(CC)N1CCN(CC2CC=CCC2)CC1 (stereo not given) | -28%[46.1 µM] | nt | -4% | -7% | -2% | nt | -11% | nt
CCOC(=O)c1ccc(Nc2ncnc3c2cnn3C)cc1 | -6% | -36% | -2% | nt | -2% | 3.5% | 24% | 6%
O=C(CCCN1C(=O)/C(=C\c2cccs2)SC1=S)Nc1ccc(O)cc1C(=O)O | nt | -12% | 0% | -23% | 4% | nt | nt | nt
Cn1c(SCC(=O)NC2CCCC2)nnc1-c1ccccn1 | nt | 6% | 7% | -14% | -6% | nt | nt | nt

Additional entries.
SMILES | Marburg entry inh | NS1 function inh | SARS PLP yeast | StopGo reporter | RE007 growth inh | Cruzain Triton | Lassa entry inh | Cruzain noTriton
CCN1CCN(c2ccc(S(=O)(=O)N3CCOCC3)cc2NC(=O)c2ccc(C(F)(F)F)cc2)CC1 | 4% | nt | -4% | -24% | 3% | nt | ? | nt
O=S(=O)(c1cccs1)N1CCN(Cc2ccccc2)CC1 | -3% | -1% | 2% | -11% | -6% | -1.6% | 10% | -9%
CC(=O)Nc1ccc(NC(=O)c2cccc(S(=O)(=O)N3CCCCCC3)c2)cc1 | -14% | nt | -1% | -15% | -12% | nt | 0% | nt
O=c1oc(-c2ccc(F)cc2)nc2ccsc12 | 18% | -6% | -9% | 35%[activator] | -25% | 9.5% | 10% | -2%
COc1ccc(C2CC(c3ccc(Cl)cc3)Nc3nc(NC(=O)c4ccco4)nn32)cc1 (stereo not given) | ? | -56% | -13% | 0% | 5% | -7.5% | ? | ?
CC1(C)CC=CC(COC(=O)c2ccccc2C(=O)O)C1 (stereo not given) | 18% | nt | nt | 42%[activator] | 14% | nt | 20%[46.1 µM] | nt
Cc1cc(N/N=C/c2ccco2)c2ccccc2n1 | 10% | -10% | -1% | -13% | -1% | nt | 5% | nt
Cc1ccc(C(=O)CC(=O)COc2ccc(Cl)cc2C)cc1 | -2%[46.1 µM] | -1% | ? | 9% | 2% | -3.8% | ? | 11%
COc1cccc(NC(=O)CN(C)C(=O)c2cccc(S(=O)(=O)N3CCN(c4ccc(F)cc4)CC3)c2)c1 | ? | nt | -1% | ? | -7% | nt | ? | nt
